D2 PAM = human D2 receptor positive allosteric modulation. potentiation, % (test concentration not listed). 360,000 tested, 0.23% active. DiscoveRx D2 beta-arrestin cells, luminescence, 90 min; 100% = 57 uM dopamine signal. AID 624464; active = potentiation of 50% or more; inconclusive = 30% to 50%; inactive = 30% or less;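 further: compound concentration not given in the record; tested on top of an EC20 dose of dopamine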
Target sequence (P14416 whole entry, looked up): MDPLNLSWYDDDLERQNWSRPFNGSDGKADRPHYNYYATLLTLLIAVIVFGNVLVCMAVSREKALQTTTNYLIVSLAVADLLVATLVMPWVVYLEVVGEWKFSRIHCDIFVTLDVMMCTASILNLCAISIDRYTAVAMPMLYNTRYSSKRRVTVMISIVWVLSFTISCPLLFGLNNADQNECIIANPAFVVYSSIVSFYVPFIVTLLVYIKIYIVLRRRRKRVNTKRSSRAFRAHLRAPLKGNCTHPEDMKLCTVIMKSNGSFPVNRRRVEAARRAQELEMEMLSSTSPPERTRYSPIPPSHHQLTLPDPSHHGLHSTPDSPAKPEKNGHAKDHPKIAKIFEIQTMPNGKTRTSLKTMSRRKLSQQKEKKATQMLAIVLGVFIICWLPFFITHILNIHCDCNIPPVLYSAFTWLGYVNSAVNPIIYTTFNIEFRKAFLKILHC
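PathHunter beta-arrestin assay in DiscoveRx D2 cells. Compounds were added with an EC20 of dopamine (50 nM final) for 90 min at 37 deg C. Luminescence was read 1 h after detection reagent, with 57 uM dopamine as the EC100 control.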
TRPML1 inh = inhibitors of human TRPML1 channel. TRPML1-inducible cells, Ca2+ dye fluorescence, FDSS; hits give low values; inhibition of EC80 agonist-evoked calcium signal. activity change, negative = inhibition, % (test concentration not listed). 390,000 tested, 0.02% active; in the data active means activity change below about -50%; inconclusive means about -30% to -50%; inactive means above about -30%;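 further: stimulus is agonist 54-4 at its EC80 concentration; on the % scale 0 is the no-effect control and ±100 the full control effect; compound concentration not given in the record; the text of the record puts the active cut at -80%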
Target sequence (Q9GZU1 whole entry, looked up): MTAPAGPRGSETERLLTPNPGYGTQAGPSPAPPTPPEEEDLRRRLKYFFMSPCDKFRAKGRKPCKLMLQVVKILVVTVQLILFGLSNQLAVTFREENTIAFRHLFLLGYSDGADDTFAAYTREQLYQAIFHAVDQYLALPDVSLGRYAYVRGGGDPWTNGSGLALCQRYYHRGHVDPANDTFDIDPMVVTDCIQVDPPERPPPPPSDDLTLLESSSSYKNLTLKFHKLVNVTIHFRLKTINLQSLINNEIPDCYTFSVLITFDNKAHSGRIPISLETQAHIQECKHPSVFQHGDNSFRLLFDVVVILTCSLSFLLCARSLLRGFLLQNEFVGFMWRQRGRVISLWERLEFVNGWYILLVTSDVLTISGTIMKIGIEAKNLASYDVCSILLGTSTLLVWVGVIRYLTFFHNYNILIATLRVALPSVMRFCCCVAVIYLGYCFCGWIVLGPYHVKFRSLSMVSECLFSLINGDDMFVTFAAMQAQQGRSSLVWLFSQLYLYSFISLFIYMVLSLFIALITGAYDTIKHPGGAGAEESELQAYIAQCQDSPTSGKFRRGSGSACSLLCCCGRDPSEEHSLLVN
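Calcium fluorescence in TRPML1-DL cells induced overnight with Tet: a 110 s read after compound pin addition, then a 110 s antagonist read after challenge with 54-4 at 4 uM final (EC80).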
PINK1 modulator = PINK1 expression modulation | PINK1 immunofluorescence, high-content cytometry, 24 h | Potency, µM (series often up to 76.6 µM), inactives show at the highest dose activation (PINK1 increase), actives largely listed as activators | 410,000 tested, 0.2% active | AID 624263; active = well fitted activation curve with a large enough effect; inconclusive = small, poorly fitted or top-dose-only effect; inactive = flat fitted curve, though single readings scatter; cell line not stated here;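 further: potency means the concentration at half of the fitted maximal effect; % of control where 0% means no effect; nearly all actives have a fitted effect of over 65% in size; a mitochondrial uncoupler was the plate control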
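PINK1 protein level read as immunofluorescence by microplate cytometer in a fixed, stained stable cell line after 24 h exposure to five compound concentrations, with CCCP as control.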
D2 ag = human D2 receptor agonism in beta-arrestin assay. P14416. DiscoveRx PathHunter D2 beta-arrestin, luminescence, 90 min; 100% = 57 uM dopamine signal. activation, % (no concentration beside the values). 360,000 tested, 0.084% active. AID 624465; in the data active = activation above about 40%; inconclusive = about 15% to 40%; inactive = below about 15%; further: compound concentration not given in the record; the text of the record calls up to 30% inactive
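Agonist mode: compounds alone added to overnight-plated D2 PathHunter cells for 90 min at 37 C, with 57 uM final dopamine (EC100) defining full response. Beta-arrestin recruitment detected by chemiluminescent reagent, read after 1 h at ambient temperature.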
Six1-Eya2 inh = inhibitors of human Six1/Eya2 interaction | AlphaScreen GST-Six1/His-Eya2 binding, biochemical; hits give low values; control for the full effect not named in the record | activity change, % (no concentration beside the values) | 360,000 tested, 0.56% active | AID 651725; in the data active = activity change below about -65%; inconclusive = about -30% to -65%; inactive = above about -30%; further: on the % scale 0 is the no-effect control and ±100 the full control effect; compound concentration not given in the record
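Compounds are tested against tagged Six1 and Eya2 proteins bridged by glutathione donor and nickel acceptor beads; after a one-hour incubation at 37 °C without light, AlphaScreen emission is recorded.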
TRPML1 agonist = human mucolipin-1 channel agonism | activation, % (no concentration beside the values) | AID 624414 | TRPML1-expressing cells, Ca2+ dye fluorescence, FDSS; host cell line not named in the record; reference of the full effect not given here | 410,000 tested, 0.12% active | Q9GZU1; in the data active = activation above about 50%; inconclusive = about 30% to 50%; inactive = below about 30%; further: 0% is about no effect; the text of the record puts the active cut at 80%
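Tet-induced TRPML1-DL cells, 1,500 per well, cultured overnight, were loaded with a no-wash Ca2+ dye for 45–90 min. Calcium fluorescence was recorded on the FDSS for 110 s after compound addition, before the EC80 agonist (4 uM 54-4) was added.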
The depositor's hits bear a star; ? = inconclusive; · = no result given; & = joins results of further samples; [ ] = remark or other dose.

Preview:
SMILES	D2 PAM	TRPML1 inh	PINK1 modulator	D2 ag	Six1-Eya2 inh	TRPML1 agonist
CCOc1ccccc1CNC(=O)C1CCN(S(=O)(=O)N2CCC(C)CC2)CC1	-10	19	2.3%	-0.5	3	-0.8
CCn1c2ccccc2c2cc(/C(C)=N/O)ccc21	7	-14	-3.4%	2.1	-9	1.3
COc1ccc(C2CC(=O)CC(=O)C2n2cncn2)cc1 (stereo unspecified)	-2	-7	-1.3%[38.3 µM]	0.4	0	0.0

The listing, from the start:
SMILES	D2 PAM	TRPML1 inh	PINK1 modulator	D2 ag	Six1-Eya2 inh	TRPML1 agonist
CCOc1ccccc1CNC(=O)C1CCN(S(=O)(=O)N2CCC(C)CC2)CC1	-10	19	2.3%	-0.5	3	-0.8
CCn1c2ccccc2c2cc(/C(C)=N/O)ccc21	7	-14	-3.4%	2.1	-9	1.3
COc1ccc(C2CC(=O)CC(=O)C2n2cncn2)cc1 (stereo unspecified)	-2	-7	-1.3%[38.3 µM]	0.4	0	0.0
COc1ccc(-c2sc3ccc(OC)cc3c2-c2ccc(OCCN3CCOCC3)cc2)cc1	·	52	0.7%	?	-30	0.1
CC(C)S(=O)(=O)c1ccc(C(=O)Nc2ccc(F)cc2F)cn1	-8	-6	0.7%	8.1	5	0.0
c1ccc(-c2ccc(-c3ccncn3)cc2)cc1	-8	11	0.8%	0.8	23	-0.8
COc1ccc(-c2nc3c(n2O)CCc2c-3no[n+]2[O-])cc1	-8	·	-0.3%	-9.6	-1	·
CC(C)NC(=O)Cn1cnc2c1c(=O)n(C)c(=O)n2C	-11	35	-2.5%	-2.1	6	0.0
CCOC(=O)C(C(=O)N(C)Cc1ccccc1)C1CCCCC1 (stereo unspecified)	-56	0	0.4%	-3.0	-18	0.3
COc1ccc(-n2nc(C(=O)NCC(=O)N3CCCC3)c3ccccc3c2=O)c(OC)c1	1	46	-1.9%	-4.7	-7	-1.1

Sorted by SMILES length (low to high): 3 of the compounds above.
SMILES	D2 PAM	TRPML1 inh	PINK1 modulator	D2 ag	Six1-Eya2 inh	TRPML1 agonist
CCn1c2ccccc2c2cc(/C(C)=N/O)ccc21	7	-14	-3.4%	2.1	-9	1.3
COc1ccc(C2CC(=O)CC(=O)C2n2cncn2)cc1 (stereo unspecified)	-2	-7	-1.3%[38.3 µM]	0.4	0	0.0
CCOC(=O)C(C(=O)N(C)Cc1ccccc1)C1CCCCC1 (stereo unspecified)	-56	0	0.4%	-3.0	-18	0.3

Additional records
SMILES	D2 PAM	TRPML1 inh	PINK1 modulator	D2 ag	Six1-Eya2 inh	TRPML1 agonist
Cc1ccc(NC(=O)C2(C)CCN2C(=O)Cc2ccccc2Cl)cc1C (stereo unspecified)	-10	·	0.0%	-2.1	4	-0.7
CC(=O)N1N=C(c2cccc(NS(C)(=O)=O)c2)CC1c1cccs1 (stereo unspecified)	-12	-13	-1.1%	0.6	-5	-0.2
O=C(CSc1ccc2ccccc2c1)NC1CCCc2ccccc21 (stereo unspecified)	-5	9	-0.8%	-1.9	4	2.0
O=C(CCN1C(=O)S/C(=C/c2ccc(Cl)cc2)C1=O)N1CCOCC1	-8	-3	5.6%	-2.3	4	0.0
CC(C)[C@H]1C(=O)Nc2ccccc2N1C(=O)N[C@@H](Cc1ccccc1)C(=O)N[C@H](Cc1ccccc1)C(=O)O	-39	·	0.1%	-6.0	3	·
Cc1noc(C)c1S(=O)(=O)N1CCC(C(=O)N2CCN(c3ccccc3)CC2)CC1	·	-11	0.2%	·	·	-0.8
O=c1c2ccccc2nc2c3ccccc3ncn12	-8	8	1.0%[38.3 µM]	-4.1	-1	0.2
COc1cc(Cl)c(C)cc1NC(=O)CCc1nc2cccnc2n1-c1ccccc1	·	-14	6.6%	·	·	1.0
CCCn1c(CN2CCN(C(=O)OCC)CC2)nc2cc([N+](=O)[O-])ccc21	-5	20	0.7%	-0.4	-3	-0.8
OCCCNc1nc(-c2ccccc2)c2cc(Br)ccc2n1	0	32	-1.8%	7.5	15	1.7
CC(=O)n1cc(/C=N/NC(=O)c2ccc(Cl)cc2)c2ccccc21	-6	-4	-0.2%	-0.7	-9	0.9
COC(=O)C1=C(C)N(c2ccc(OC)c(OC)c2)C(=O)C1	-5	-13	1.2%[38.3 µM]	-1.2	2	-0.5
O=C(Nc1ccc([N+](=O)[O-])cc1)c1cccc(S(=O)(=O)Nc2cccnc2)c1	-9	-28	-0.1%	6.7	-4	1.1
Cc1ccn2c(=O)nc(SCC(=O)NCc3ccc(F)cc3)nc2c1	4	-3	0.0%	1.6	-1	-0.3
Nc1ccc(NS(=O)(=O)c2ccccc2)cc1	1	16	-0.1%	-0.1	5	-0.3
Cc1ccc2nc3ccc(N4CCN(C)CC4)nn3c(=O)c2c1	-3	-12	2.2%	-1.5	-7	-1.6
Cc1ccc(S(=O)(=O)N(C)C)cc1NC(=O)CCCNC(=O)c1ccc(Cl)cc1	-20	-5	1.0%	-2.0	4	-0.2
CCOc1cc(OCC)cc(C(=O)NCCCN2CCOCC2)c1	-14	35	0.9%	-2.3	1	0.5
CC1CCC2(CC1)NC(=O)N(CC(=O)Nc1cccc(S(=O)(=O)N3CCCCC3)c1)C2=O (stereo unspecified)	-8	61	1.3%	0.7	-4	0.9
Cc1cc(C(=O)NNC(=S)NCc2ccco2)n(C)n1	-15	22	-2.1%	-5.6	5	3.3
Cc1csc(NC(=O)c2sc3nc(-c4cccs4)ccc3c2N)n1	?	-1	·	3.2	-1	?
CCCc1cc(=O)n2[nH]c(-c3cccc(Br)c3)cc2n1	-30	3	3.4%	-4.0	-11	0.4
CN1CC2CCCC3(C1)C(=O)NC1(CCCCC1)N=C23 (stereo unspecified)	-5	12	1.3%	-2.2	14	0.4
CSc1ncccc1C(=O)OCC(=O)N1CCN(S(=O)(=O)c2ccc(C)cc2C)CC1	-7	5	-0.1%	-2.7	8	0.8
CC(=O)Nc1cccc(C(=O)NC2CCCc3c2cnn3-c2ccc(C(C)(C)C)cc2)c1 (stereo unspecified)	-6	19	0.9%	8.3	-2	0.2
CCCCN(C(=O)/C=C/c1ccco1)c1c(N)n(CC(C)C)c(=O)[nH]c1=O	-7	-1	-0.6%	1.4	-5	0.3
CCN(C(=O)COC(=O)CSc1ccc(C)c(C)c1)C1CCS(=O)(=O)C1 (stereo unspecified)	6	9	-0.7%	-0.8	3	0.0
Cc1ccc(-n2c(C)nc3c(cnn3-c3ccc(F)cc3)c2=O)cc1	21	21	-0.7%	-2.2	2	-0.7
CNc1cncc(-c2ccc(OC)cc2)n1	-16	·	-1.3%	-3.6	-1	-0.7
CCN1CCN(C(=O)CN(C)S(=O)(=O)c2cc(C)ccc2OC)CC1	-8	9	?	-2.4	0	1.2
O=C(NCc1ccc2c(c1)OCO2)C1CCCN1C(=O)Nc1ccc(F)cc1 (stereo unspecified)	-13	-8	-3.6%	-2.8	5	0.1
CCCCc1nnc(NC(=O)c2nc3nccc(C)n3n2)s1	-4	-3	-0.8%	-2.2	5	0.1
N#Cc1cccc(C(=O)OCc2cccc(S(=O)(=O)N3CCOCC3)c2)c1	-18	-4	-0.2%	2.1	5	-0.2
O=[N+]([O-])c1ccc(CS(=O)c2ccccc2)cc1 (stereo unspecified)	-5	5	4.5%	-0.7	-10	-0.1
CCOC(=O)c1sc2ccc(S(=O)(=O)N3CCCCC3)cc2c1N	-4	-1	0.3%[38.3 µM]	0.2	0	0.5
Cc1[nH]c2ccccc2c1/C=N/NC(=O)Cc1cccs1	-34	0	-2.4%	-5.5	-5	0.0
CCOC(=O)c1[nH]c(C)c(C(=O)OCc2ccc(C)cc2)c1C	-6	1	12%	-1.7	1	-0.6
Cc1ccc(C)c(NC(=O)CCC(=O)N/N=C/c2cc([N+](=O)[O-])ccc2O)c1	-22	-18	-0.9%	-4.8	-86*	2.4
Cc1ccc(C)c(OCC(=O)Nc2ccc(S(=O)(=O)N3CCN(C)CC3)cc2)c1	-14	0	-0.8%	-3.0	-4	-0.7
Cc1ccc2cccc(OCC(=O)NCc3ccco3)c2n1	-4	-9	0.9%	-0.2	-2	-0.4
COc1ccccc1Cc1c(-c2ccc(C#N)cc2)nc2ccc(C)cn12	·	·	?	·	-10	-0.6
CCCc1nc2nc(C)c(NS(=O)(=O)c3ccc(C(C)(C)C)cc3)c(=O)n2[nH]1	-5	15	0.2%	-2.1	4	1.6
Cc1cccc(NC(=O)c2ccc(N3CCOCC3)c([N+](=O)[O-])c2)n1	4	17	0.9%	-2.6	-4	-1.3
Cc1ccc(S(=O)(=O)N/N=C/c2ccccc2O)cc1[N+](=O)[O-]	-9	10	2.2%	-4.3	0	0.7
Cc1ccc(C(=O)O/N=C(\N)Cc2cccs2)cc1[N+](=O)[O-]	29	2	0.3%	?	-4	0.8
CC(=O)N(C)c1ccc(NC(=S)Nc2ccc(C(C)C)cc2)cc1	-8	-13	2.5%	-6.1	14	1.1
CN(c1ccccc1C(=O)Nc1ccc2ccccc2c1)S(C)(=O)=O	-3	-9	1.4%	-0.5	2	6.0
CCOc1ccccc1/C=C(/NC(=O)c1ccccc1)C(=O)NC(C)c1ccccc1 (stereo unspecified)	4	0	2.1%	-2.7	6	1.2
CNc1oc(-c2ccc(Cl)cc2)nc1P(=O)(c1ccccc1)c1ccccc1	-17	5	-6.8%	-3.7	-10	1.6
O=S(=O)(c1ccc2c(c1)C(=NO)c1cc(S(=O)(=O)N3CCCCC3)ccc1-2)N1CCCCC1	14	-2	11%	6.7	-4	0.0

Next section.
SMILES	D2 PAM	TRPML1 inh	PINK1 modulator	D2 ag	Six1-Eya2 inh	TRPML1 agonist
COc1ccc(NC(=O)NNC(=O)c2ccccc2-n2cccc2)cc1OC	-8	-6	2.4%	2.2	3	-0.3
COc1ccc(NC2CCCN(C(=O)CN3CCOC3=O)C2)cc1 (stereo unspecified)	-3	8	-0.5%	-1.3	0	0.2
O=C(Nc1ccc(CSc2ccccc2)cc1)c1ccccc1	-8	-6	1.4%	1.3	4	0.6
COc1ccc(CC(=O)OC2CCCN(C)C2)cc1 (stereo unspecified)	0	4	3.1%	-2.6	-14	1.0
CCc1nnc(NC(=O)C(NS(=O)(=O)c2ccc3c(c2)OCCO3)C(C)C)s1 (stereo unspecified)	-7	0	7.5%	-0.4	-1	-0.2
COc1ccc2c(c1)OC13CCN(C)CC1C2C(C(=O)c1ccc(F)cc1)C(=O)N3 (stereo unspecified)	-8	-5	1.0%	-4.5	1	-0.7
O=C(O)CCOc1ccc2c(c1)OCCO2	-1	6	1.9%	-3.0	0	-0.2
O=C(CCNC(=O)c1ccccc1Cl)NCCC1=CCCCC1	-11	22	-0.9%	-4.6	3	1.0
C[C@H](CO)N1C[C@H](C)[C@@H](CN(C)S(=O)(=O)c2cccs2)OCc2cn(nn2)CCCC1=O	4	6	-0.3%	-9.9	5	0.0
Cc1cccc(NC(=O)c2nc(S(C)(=O)=O)ncc2Cl)c1	·	-5	-1.5%	·	·	2.3
Cc1ccc2nc3sc(C(=O)Nc4ccc(F)cc4)cc3cc2c1	·	7	-1.3%&0.0%	·	·	1.1&-0.1
Cn1c2c(c(=O)n(C)c1=O)C(C(F)(F)F)(C(F)(F)F)N=C(c1ccc(Cl)cc1)N2	?	13	?	4.4	2	0.1

Assay outcomes: PubChem, National Center for Advancing Translational Sciences (NCATS)
